Screening data from PubChem.
NPYLR7 ag – activates Aedes aegypti NPYLR7 receptor; HEK293T NPYLR7/Galpha15, GCaMP6s calcium fluorescence; activation, % at 10 µM; 270,000 compounds, 0.15% hits; AID 1259423; in the data active = activation above about 40%;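 note: 0% = vehicle and 100% = reference agonist at the receptor; some compounds past the cut are filed as inactive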
NPYLR7 ag max-min – second read-out of NPYLR7 ag, no call of its own (marks repeat the call); activation, %; measured here: Max-Min RFU normalised activation; some inactives read as strong as hits;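 span of the calcium signal over five minutes; 0% = vehicle and 100% = native peptide agonist; compound fluorescence can raise it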
* hit, by the source's call; & = joins results of further samples. An excerpt; the hit share may differ from the screen's.

SMILES	NPYLR7 ag	NPYLR7 ag max-min
NC(=O)c1ccc(NC(=O)N2CCC(Cc3ccccc3)C2)cc1 (configuration not stated)	6	2
CCN(CC)C(=O)Oc1ccc2c(ccn2Cc2ccc(Br)cc2)c1-c1ccc(OC)cc1	-11	-13
c1ccc(-n2nnnc2N2CCCC2c2cccs2)cc1 (configuration not stated)	-1	10
Cc1cccc(COn2c(=O)c[n+]([O-])c3ccccc32)c1	-1	-2
Cc1c(C)n2c3c(=O)n(C)c(=O)n(C)c3nc2n1CCNc1cccc(Cl)c1	2	-5
N#Cc1c(NC(=O)c2ccc(Cl)c([N+](=O)[O-])c2)sc2c1CCC2	-4	-10
CCN(CC)C(=O)Oc1ccc2c(ccn2Cc2cc(C(F)(F)F)cc(Cl)c2F)c1-c1ccc(OC)c(OC)c1	10	5
CC1(NC(N)=O)CCS(=O)(=O)C1 (configuration not stated)	17	10
COc1cc(Cl)cc(C(=O)N2CCN3CCN(C)CC3C2)c1 (configuration not stated)	6	4
CCNC(=O)N1CCC(NC(=O)NCC2CC2c2ccccc2)C1 (configuration not stated)	-1	220
CCNC(=O)N(CCN1CCCC1)CC(=O)N(Cc1ccc2c(c1)OCO2)Cc1sccc1C	-2	9
Cc1ccc(NC(=O)CC(=O)N2CCN(CC(C)C)CC2)cc1	-3	-5
CCc1cc(CN2CCOc3c(O)cc(-c4cccc(Cl)c4)cc3C2)[nH]n1	16	8
Nc1nn(S(=O)(=O)c2ccc([N+](=O)[O-])cc2)cc1-c1ccc(Br)cc1	5	3
O=C(CN(C(=O)C1CCCC1)C1CC1)N(CCc1c[nH]c2ccccc12)Cc1ccc(Cl)cc1	2	11
O=C1NCC2(CCCN(Cc3ccc4ccccc4n3)CC2)O1 (configuration not stated)	-3	-4
O=C(NCC1COc2ccccc2O1)c1ccc2c(c1)CCC2 (configuration not stated)	-8	-9
COc1ccc(OCCN(C)Cc2cc(C#N)ccc2F)cc1	4	6
CC(=O)c1ccc2c(c1)N(Cc1ccccc1C)C(=O)C(C)S2 (configuration not stated)	0	-1
CC1(C(=O)NS(=O)(=O)c2ccccc2)CCN1C(=O)Cc1ccc(-c2ccccc2)cc1 (configuration not stated)	-1	-5
Cc1cc(C)c2oc(-c3ccc(C)c(NC(=O)c4cccc(F)c4)c3)nc2c1	6	6
COc1ccc(CCC2CCCN(C(=O)CSc3ncn[nH]3)C2)cc1 (configuration not stated)	6	3
COc1cc(CN(CCC(C)C)CC(O)COc2ccccc2)cc(OC)c1 (configuration not stated)	28	22
c1ccc(-c2nn(-c3ccccc3)cc2CN2CCCC(N3CCCC3)C2)cc1 (configuration not stated)	0	-2
CCNC(=O)C1(C)CCCN(Cc2cccs2)C1 (configuration not stated)	0	-1
Next part.
SMILES	NPYLR7 ag	NPYLR7 ag max-min
CNc1cc(-c2cccc(OC)c2)ncn1	2	2
Cc1cc(=O)[nH]c(SC(C)C(=O)N2CCc3c(ncnc3N(C)C)C2)n1 (configuration not stated)	6	0
COc1ccc(C=C2N=C(c3cccc(Cl)c3)OC2=O)c(OC)c1OC	-6	-8
COc1ccccc1C(=O)Nc1nc2ncccc2cc1-c1ccccc1	-3	1
CC(=O)Nc1ccc(NC(=O)CSc2nc(=O)n3ccccc3n2)cc1	6	4
NC(=O)c1cc(C(N)=O)c(C(N)=O)nc1C(N)=O	-2	-3
COC(=O)Nc1ccc(S(=O)(=O)N2CCCC(C(=O)N3CCC(C)CC3)C2)cc1 (configuration not stated)	2	-1
O=C(Cn1nnc(-c2ccccc2)n1)N1CCN(c2ccc(Cl)cc2[N+](=O)[O-])CC1	4	9
CCc1cc(CNC(=O)N(C)Cc2nc(C(F)(F)F)cs2)[nH]n1	-1	-3
CCCn1c(-c2nnc(C(C)C)o2)cc2ccccc21	-6	-6
COc1cccc(CC2=NOC(C(=O)N3CCC(Sc4ccc(F)cc4)CC3)C2)c1 (configuration not stated)	6	3
O=S1(=O)CCC(N(Cc2ccon2)Cc2ccccc2F)C1 (configuration not stated)	15	11
O=C(NC(Cc1c[nH]c2ccccc12)C(=O)O)c1ccc(Cl)cc1 (configuration not stated)	-8	-20
Cc1cc(NC(=O)COC(=O)C2CSC3(c4ccc(F)cc4)CCC(=O)N23)no1 (configuration not stated)	8	7
CCn1ccnc1CN(C)C(=O)c1ccc2oc(-c3ccc(C(F)(F)F)cc3)nc2c1	11	7
Cc1nnc(SCC(=O)Nc2ccc(F)cc2)c2c1cnn2-c1ccc(F)cc1	-12	-18
Cc1cccc(C)c1OCC(O)CNc1ncc(C(F)(F)F)cc1Cl (configuration not stated)	5	-1
COc1cccc(C(=O)N2CCSC2c2ccccc2C(F)(F)F)c1 (configuration not stated)	-5	-8
CC(=O)N1N=C(Cc2ccccc2)OC1C(=O)N1CCN(c2ccccc2)CC1 (configuration not stated)	6	-1
COc1cc(NS(=O)(=O)c2cnc[nH]2)cc(OC)c1	10	1
CCOC(=O)C1(C)CCCCN1C(=O)c1ccnc(Cl)c1 (configuration not stated)	-4	-9
O=S(=O)(Nc1ccccc1O)c1cnn(-c2ccccc2F)c1	1	-1
CC1(C(=O)NS(=O)(=O)c2cccc(F)c2)CCN1C(=O)Cc1ccccc1Cl (configuration not stated)	8	3
Nc1nc(=S)nc(-c2cc(C3CC3)nn2-c2ccccc2)[nH]1	1	7
COc1cc2nc(/C=C/c3ncc[nH]3)sc2cc1OC	7	-7
(more compounds)
SMILES	NPYLR7 ag	NPYLR7 ag max-min
CCOC(=O)C1(Cc2cccc(Cl)c2)CCCN(C(=O)c2ccco2)C1 (configuration not stated)	1	3
CCOC(=O)C1CCCCN1CC(=O)N1N=C(c2cccc(C)c2)CC1c1ccc(OC)cc1 (configuration not stated)	-4	4
COc1ccc(-c2cc(N)n(-c3ccc(C(=O)NC[C@@H]4CCCO4)cc3)n2)cc1	-2	-4
COc1ccc(-c2cn3nc(SCC(=O)Nc4ccc(C)cc4C)ccc3n2)cc1	3	4
O=C(O)CCc1nnc(-c2cccs2)[nH]c1=O	12	3
COc1ccc(NCN2C(=O)c3cc(Cl)c(Cl)cc3C2=O)cc1	16	18
COc1ccc(CCN(C)C(=O)c2ccc3c(c2)OCCO3)cc1OC	-5	-5
O=C(Nc1ccccc1C(F)(F)F)NC1CCCN(C2CCCCCC2)C1 (configuration not stated)	-3	-6
CN(CC(=O)NC(C)(C)C)c1ncc(C(F)(F)F)cc1Cl	5	5
COC(=O)CC1CCCCN1C(=O)c1ccc(-c2cscn2)cc1 (configuration not stated)	2	0
Cc1cc(C)nc(N2CC3ON=C(c4c(F)cccc4Cl)C3C2)n1 (configuration not stated)	0	-2
CN(C(=S)NC(=O)c1ccco1)C1CCS(=O)(=O)C1 (configuration not stated)	3	2
CCN(C(=O)/C=C/c1cscn1)c1ccc(Br)cn1	5	5
O=C(CCc1ccccc1)N1CCCC(OCc2ccccc2Cl)C1 (configuration not stated)	-9	-3
Cn1cccc1-c1cc(C(=O)N2CCN(C(c3ccccc3)c3ccccc3)CC2)n(-c2ccc([N+](=O)[O-])cc2)n1	6	18
CCOC(=O)c1[nH]c2ccccc2c1NC(=O)/C=C/c1ccccc1	0	11
Cc1nc2c(C)cccn2c(=O)c1NC(=O)c1ccccc1C(F)(F)F	1	-2
Cc1nnc(SC(C)C)n1C1CCCCC1	3	3
Cn1c([N+](=O)[O-])cc[n+]1C	-4	2
C=C1c2c(Cl)ccc(O)c2C(O)=C2C(=O)[C@]3(O)C(=O)C(C(N)=O)C(=O)[C@@H](N(C)C)[C@@H]3[C@@H](O)[C@H]12 (some centres not stated)	-1&-10	-2&-12
CSc1ccc(NC(=O)N2CCN(c3nc(-c4ccc(Cl)cc4)nc(C)c3Cc3ccccc3)CC2)cc1	-7	-4
CCN(CC(=O)c1c(C)c(C(=O)OC)n(CC)c1C)C(=O)c1cccc2ccccc12	-10	-7
Cc1cccc(Nc2nc(N)c([N+](=O)[O-])c(N3CCCC3)n2)c1	3	11
CC(NS(C)(=O)=O)C(=O)N1CCC(c2ccncc2)CC1 (configuration not stated)	23	12
COCC(C)(CCO)NCc1c(F)cccc1Cl (configuration not stated)	6	2

Filtered by structure: the entries above with a nitro group on carbon (6)
SMILES	NPYLR7 ag	NPYLR7 ag max-min
N#Cc1c(NC(=O)c2ccc(Cl)c([N+](=O)[O-])c2)sc2c1CCC2	-4	-10
Nc1nn(S(=O)(=O)c2ccc([N+](=O)[O-])cc2)cc1-c1ccc(Br)cc1	5	3
O=C(Cn1nnc(-c2ccccc2)n1)N1CCN(c2ccc(Cl)cc2[N+](=O)[O-])CC1	4	9
Cn1cccc1-c1cc(C(=O)N2CCN(C(c3ccccc3)c3ccccc3)CC2)n(-c2ccc([N+](=O)[O-])cc2)n1	6	18
Cn1c([N+](=O)[O-])cc[n+]1C	-4	2
Cc1cccc(Nc2nc(N)c([N+](=O)[O-])c(N3CCCC3)n2)c1	3	11

Carrying on.
SMILES	NPYLR7 ag	NPYLR7 ag max-min
COc1cccc(CN(Cc2ccc(F)cc2)CC(O)COCc2ccccc2)c1OC (configuration not stated)	27	38
c1ccc(C(c2ccccc2)N2CCN(Cc3nc(CC4CC4)no3)CC2)cc1	19&-2	8&-4
COc1ccc(CC(=O)N(CCc2ccccc2)C(C)c2nc3ccccc3c(=O)n2-c2ccc(C)c(C)c2)cc1 (configuration not stated)	-8	4
C=CCn1cc(CNC(CCn2ccnc2C)c2ccccc2)c(C)n1 (configuration not stated)	1	0
CN(Cc1ncc[nH]1)C(=O)c1ncc(F)cc1F	4	1
Cc1ccc(-c2ccc(OCCNC(=O)Cc3cccs3)nn2)cc1	0	1
CCn1c(SCC(=O)NCc2ccc(Cl)cc2)nc2c(-c3ccccc3)c[nH]c2c1=O	-1	-5
Cc1cc([N+](=O)[O-])nn1CC(=O)NCc1ccc2c(c1)OCO2	2	1
CC(C)Cc1cc(Cn2cnnc2)no1	1	-5
CSc1ccc(C(=O)CC(C)(C)C(=O)NC2CCC(C(C)(C)C)CC2)cc1 (configuration not stated)	-7	-9
C=C(C)CNC(=S)NNC(=O)COc1ccccc1	1	-6
N#Cc1c(N)nc2c(c1-c1cccnc1)CCCCC2	2	-2
CC(=O)NCCC1=CCCN(Cc2ccc3c(c2)OCO3)C1	23	8
CCOC(=O)c1ccc(Nc2nnc(-c3cc4cc(OC)ccc4oc3=O)s2)cc1	-8	-12
O=C(Cc1ccc(O)c(Cl)c1)N1CCOC(c2ccc(Cl)cc2)C1 (configuration not stated)	10	3
CCNC(=O)N1CCN(C(C(=O)NCCc2ccccc2)C2CCCC2)CC1 (configuration not stated)	-16	-16
Cn1c(=O)c(Br)c2c3c(cccc31)C(=O)c1ccccc1-2	-1	-6
CCOc1ccccc1C(=O)Nc1ccc(N2CCN(C(=O)COCc3ccccc3)CC2)nc1	-5	-3
CCN(CC)C(=O)[C@@H]1C[C@@H](N)CN1C(=O)CN1CCCC1=O	-1	-8
COc1ccc2nc(NC(=O)C3CCCN3S(=O)(=O)c3ccc(C)cc3)sc2c1 (configuration not stated)	-5	-10
CN1CC2(CCN(C(=O)c3ccccc3-n3cncn3)C2)OC1=O (configuration not stated)	4	2
CCNC(=O)c1cccnc1Sc1cccc(C(F)(F)F)c1	1	0
O=C(c1ccc2c(c1)OCO2)N1CCCC(Nc2ccc(F)c(F)c2)C1 (configuration not stated)	16	6
O=C(NC1CC1)C1CCN(C2CCN(C(=O)c3ccccc3-n3cccn3)CC2)CC1	18	11
COc1ccc(C(=O)Nc2nc(-c3ccc(C#N)cc3)cs2)c(OC)c1	0	0
COc1cc(COC2CCCN(S(=O)(=O)C(C)C)C2)cc(OC)c1 (configuration not stated)	-2	3
CC1CN(Cc2cccc(CNC3CCCC3)c2)CCO1 (configuration not stated)	6	3
CC(C)N(CC(=O)N1CCc2sccc2C1c1ccc(Cl)cc1)C(=O)c1ccc(C(F)(F)F)cc1 (configuration not stated)	13	15
Cc1sc2nc(SCC(=O)NCc3ccccc3)n(CC(C)C)c(=O)c2c1C	-1	-3
Cc1ccc(NC(=S)N(C)C)cc1	-8	-14

Reformatted: entries from further up
canonical_smiles | NPYLR7 ag | NPYLR7 ag max-min
COc1ccc(CC(=O)N(CCc2ccccc2)C(C)c2nc3ccccc3c(=O)n2-c2ccc(C)c(C)c2)cc1 (configuration not stated) | -8 | 4
C=CCn1cc(CNC(CCn2ccnc2C)c2ccccc2)c(C)n1 (configuration not stated) | 1 | 0
CN(Cc1ncc[nH]1)C(=O)c1ncc(F)cc1F | 4 | 1
Cc1ccc(-c2ccc(OCCNC(=O)Cc3cccs3)nn2)cc1 | 0 | 1
CCn1c(SCC(=O)NCc2ccc(Cl)cc2)nc2c(-c3ccccc3)c[nH]c2c1=O | -1 | -5

Entries above that contain a tert-butyl group:
SMILES	NPYLR7 ag	NPYLR7 ag max-min
CN(CC(=O)NC(C)(C)C)c1ncc(C(F)(F)F)cc1Cl	5	5
CSc1ccc(C(=O)CC(C)(C)C(=O)NC2CCC(C(C)(C)C)CC2)cc1 (configuration not stated)	-7	-9

Looked up one by one from the entries so far:
SMILES	NPYLR7 ag	NPYLR7 ag max-min
CCCn1c(-c2nnc(C(C)C)o2)cc2ccccc21	-6	-6
COC(=O)Nc1ccc(S(=O)(=O)N2CCCC(C(=O)N3CCC(C)CC3)C2)cc1 (configuration not stated)	2	-1
COc1cc2nc(/C=C/c3ncc[nH]3)sc2cc1OC	7	-7
Cc1cc(=O)[nH]c(SC(C)C(=O)N2CCc3c(ncnc3N(C)C)C2)n1 (configuration not stated)	6	0
O=C(NC1CC1)C1CCN(C2CCN(C(=O)c3ccccc3-n3cccn3)CC2)CC1	18	11
CCc1cc(CN2CCOc3c(O)cc(-c4cccc(Cl)c4)cc3C2)[nH]n1	16	8
